Screening data from PubChem BioAssay.
PINK1 modulator: A Quantitative High throughput Screen to Identify Chemical Modulators of PINK1 Expression | AID 624263, 2012 | Potency, µM (series often up to 76.6 µM), for the others: top-dose activation (PINK1 increase), hits mostly activators | actives 0.2% (n = 410,000) | PINK1 immunofluorescence, high-content cytometry, 24 h; active = well fitted activation curve with a large enough effect; inconclusive = small, poorly fitted or top-dose-only effect; inactive = flat fitted curve, though single readings scatter; cell line not stated here;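 also: potency is read from the fitted curve at half-maximal effect; % of control where 0% means no effect; nearly all actives have a fitted effect of over 65% in size; a mitochondrial uncoupler was the plate control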
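A stable cell line was treated with compounds at 5 concentrations for 24 hours, with CCCP as control. PINK1 levels and mitochondrial localization were measured by immunofluorescence with mitochondrial, cell and nuclear markers after fixation, read by laser-scanning cytometry.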
Sfp inh: qHTS Assay for Inhibitors of Bacillus subtilis Sfp phosphopantetheinyl transferase (PPTase); 4'-phosphopantetheinyl transferase ffp (Bacillus subtilis), Q9F4F7; Biochemical Sfp PPTase activity, qHTS; Potency, µM, for the others: max response, negative = inhibition, usual class: inhibitors; actives 3.5% (n = 310,000); AID 1490, 2009; active = well fitted inhibition curve with a large enough effect; inconclusive = small, poorly fitted or top-dose-only effect, or another doubt; inactive = no such curve, though single readings can be large or run the other way;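 also: the enzyme is Sfp with the accession as filed and its product quenches rhodamine fluorescence; potency is read from the fitted curve at half-maximal effect; 0% = enzyme reaction without inhibitor and -100% = no enzyme wells; top concentration of the series not given in the record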
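After 15 min at room temperature with compound, 15 nM Sfp received 5 uM rhodamine-CoA plus 12.5 uM BHQ-2-ybbR (50 mM Hepes pH 7.6, 10 mM MgCl2). Rate came from the fluorescence difference over 30 min, ex 525/em 598 nm.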
ClpP mod: qHTS Assay for Activators of ClpP; AID 651965, 2013; Potency, µM (series often up to 57.5 µM), for the others: top-dose activity change, negative = active; actives 1.9% (n = 340,000); purified B. subtilis ClpP, FRET peptide cleavage, 20 min; active = well fitted falling curve with a large enough effect; inconclusive = small, poorly fitted or top-dose-only effect; inactive = no such curve, though single readings can be large or run the other way; also: potency is read from the fitted curve at half-maximal effect; the source files actives as falling curves though it sought activators and does not explain the sign; nearly all actives have a fitted effect of over 65% in size; many hits overshoot -100%
Target sequence (P80244 whole entry, looked up): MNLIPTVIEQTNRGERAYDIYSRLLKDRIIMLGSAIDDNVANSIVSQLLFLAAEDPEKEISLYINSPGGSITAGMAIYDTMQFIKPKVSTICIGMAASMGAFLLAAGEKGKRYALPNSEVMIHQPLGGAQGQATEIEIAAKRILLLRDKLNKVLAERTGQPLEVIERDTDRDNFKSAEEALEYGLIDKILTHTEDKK
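FRET quenching reversal measured ClpP activation: 10 microg/mL B. subtilis ClpP at pH 8 with the FRET-FV decapeptide, read at 430 nm after 320 nm excitation. The 20-min minus 0-min signal was scaled between DMSO/no-enzyme wells and ADEP (5.8 microM final).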
TRPML1 inh: qHTS for Inhibitors of the Human Mucolipin Transient Receptor Potential 1 (TRPML1) | TRPML1-inducible cells, Ca2+ dye fluorescence, FDSS; stronger effect = lower value; inhibition of EC80 agonist-evoked calcium signal | activity change, negative = inhibition, % (no concentration beside the values) | actives 0.02% (n = 390,000) | AID 624415, 2012; in the data active means activity change below about -50%; inconclusive means about -30% to -50%; inactive means above about -30%;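 also: stimulus is agonist 54-4 at its EC80 concentration; % is scaled to controls: 0 for no effect and ±100 for the full control effect; compound concentration not given in the record; the text of the record puts the active cut at -80%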
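Tet-induced TRPML1-DL cells loaded with Ca8 no-wash calcium dye were read kinetically on FDSS. Compound addition was followed by EC80 agonist 54-4 (4 uM final); inhibition was read over 110 s.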
TRPV1 PAM: HTS Assay for Compounds that Act as Potentiators of the Vanilloid Receptor 1; AID 540277, 2011; actives 0.02% (n = 320,000); potentiation, % at 8.33 µM; TRPV1-expressing cells, Fluo-8 calcium influx, capsaicin EC20 potentiation; host cell line not named in the record; control for the full effect not named in the record; active means potentiation above 80%; inconclusive means 30% to 80%; inactive means below 30%; also: 0% is about no effect
Target sequence (Q8NER1 whole entry, looked up): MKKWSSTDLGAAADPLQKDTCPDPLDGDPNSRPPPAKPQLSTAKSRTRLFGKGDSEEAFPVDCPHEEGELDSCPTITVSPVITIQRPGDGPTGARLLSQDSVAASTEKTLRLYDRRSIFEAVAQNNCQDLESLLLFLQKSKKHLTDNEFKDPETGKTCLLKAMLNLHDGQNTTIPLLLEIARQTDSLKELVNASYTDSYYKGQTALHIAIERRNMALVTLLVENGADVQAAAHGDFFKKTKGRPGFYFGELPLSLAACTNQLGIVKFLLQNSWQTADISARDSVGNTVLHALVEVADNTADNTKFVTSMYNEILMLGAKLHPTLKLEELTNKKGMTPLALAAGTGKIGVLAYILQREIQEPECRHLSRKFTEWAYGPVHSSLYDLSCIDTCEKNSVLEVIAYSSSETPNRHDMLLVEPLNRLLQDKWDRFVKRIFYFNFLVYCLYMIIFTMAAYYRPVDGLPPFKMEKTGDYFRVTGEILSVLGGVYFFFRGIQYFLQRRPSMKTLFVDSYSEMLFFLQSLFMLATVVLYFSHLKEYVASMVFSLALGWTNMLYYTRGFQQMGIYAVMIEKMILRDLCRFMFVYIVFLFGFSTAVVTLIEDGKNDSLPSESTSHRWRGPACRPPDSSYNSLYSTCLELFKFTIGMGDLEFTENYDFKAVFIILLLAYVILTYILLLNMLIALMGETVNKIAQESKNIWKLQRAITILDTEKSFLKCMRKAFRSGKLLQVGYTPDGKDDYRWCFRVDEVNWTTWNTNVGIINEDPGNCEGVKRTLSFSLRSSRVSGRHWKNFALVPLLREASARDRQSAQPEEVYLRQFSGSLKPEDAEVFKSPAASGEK
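Fluo-8 calcium influx in TRPV1-expressing cells, kinetic read (ex 480/em 520 nm). Compound added and read 3 min for agonist activity, followed by capsaicin at EC20 final and 2 min further read for enhancement.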
TRPML1 ag: qHTS for Agonists of the Human Mucolipin Transient Receptor Potential 1 (TRPML1) | TRPML1-expressing cells, Ca2+ dye fluorescence, FDSS; host cell line not named in the record; reference of the full effect not given here | activation, % (no concentration beside the values) | actives 0.12% (n = 410,000) | AID 624414, 2012; in the data active = activation above about 50%; inconclusive = about 30% to 50%; inactive = below about 30%; also: 0% is about no effect; the text of the record puts the active cut at 80%
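Kinetic FDSS Ca2+ read in Tet-induced TRPML1-DL cells (ABD Ca8 dye plus quencher, 45-90 min RT loading): baseline, then compound, then 110 s agonist window; EC80 agonist 54-4 at 4uM final added afterwards for a 110 s antagonist window.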
Menin-MLL FL inh: qHTS Assay for Inhibitors Targeting the Menin-MLL Interaction in MLL Related Leukemias: Competition With Fluorescein Labeled MLL-derived Peptide; Fluorescence polarization, fluorescein-MLL peptide displacement from menin; FP activity change, % at 61.4 µM; 290,000 tested, under 10 active; AID 1766, 2009; inconclusive = falling polarisation curve, or a change in total fluorescence; inactive = total fluorescence flat and polarisation flat or rising; no compound was filed as active; the % refers to the polarisation; negative = inhibition;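 also: % of control where 0% means no effect; inhibitors lower the polarisation; unlabelled MLL peptide was the positive control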
An asterisk follows results filed as active; u = inconclusive; x = no result given; & = joins results of further samples; [ ] = another dose, or the depositor's remark.

SMILES | PINK1 modulator | Sfp inh | ClpP mod | TRPML1 inh | TRPV1 PAM | TRPML1 ag | Menin-MLL FL inh
C=CCn1c(SCC(=O)Nc2ccccc2F)nnc1C(C)NC(=O)c1ccccc1F (configuration not stated) | -0.2% | 20% | -20% | -1 | 13 | -0.3 | x
Cn1cc(CN2CCN(CCc3ccccc3)C(CCO)C2)cn1 (configuration not stated) | 1.3% | 12% | 0.4% | 6 | -3 | -0.2 | -1.1
CC(=O)N1CCc2cc(S(=O)(=O)CCC(=O)Nc3cc(C)cc(C)c3)ccc21 | -0.9% | -3% | -5.3% | -3 | -2 | 0.4 | -3.6
O=C(Nc1nc2ccc(S(=O)(=O)N3CCCCC3)cc2s1)c1cccnc1 | 4.8%[38.3 µM] | -6% | -10% | 3 | 8 | 0.1 | 0.7
CS(=O)(=O)N(Cc1ccccc1)c1ccc(C(=O)N2CCc3ccccc3C2)cc1 | -3.5% | 6% | 0.4% | 1 | -17 | -0.7 | 5.4
CCOC(=O)C1(CCOC)CCN(Cc2ccc(C3CCCCO3)s2)CC1 (configuration not stated) | 2.8% | 1% | x | -5 | -11 | 0.5 | 1.7
CCOC(=O)c1c(NC(=O)COC(=O)Cn2c(C)nc3ccccc32)sc2c1CCCC2 | 6.7% | 32µM* | -4.0% | 13 | -10 | 3.4 | 5.3
Cc1cc(SCc2ccc(C(F)(F)F)cc2)nc(=O)[nH]1 | 3.8% | 3% | 1.0% | 19 | 2 | 3.0 | x
CCOC(=O)c1c(N)sc(C(=O)N(C)C)c1C | -1.8% | 15% | -0.1% | 14 | 1 | 1.4 | 2.6
O=C(CSc1nnc(CNc2ccc(F)cc2)n1-c1ccccc1)N1CCOCC1 | 0.6% | 20% | -3.9% | -6 | -7 | 0.7 | 2.3
CCOc1ncccc1C(=O)N1CCCSC1=Nc1ccccc1OC | -0.8% | 5% | 0.2% | -9 | 22 | -0.7 | -2.0
CC1CC2C3CCC4=CC(=O)C=CC4(C)[C@@]3(Cl)C(O)CC2(C)C1(O)C(=O)CO (some centres not stated) | 1.3% | x | 0.5% | 8 | x | 0.2 | x
C=CCOc1ccc(CNC(C)(C)CO)cc1OC | 2.8% | 11% | -1.3% | 2 | 20 | 0.4 | 5.3
CCOc1ccc(C(=O)c2cc3ccc(O)cc3oc2=O)cc1 | 1.2% | 19% | -2.2% | -7 | -8 | 0.0 | 22
CN1CC(=O)N(CC(=O)Nc2cccc(C#N)c2)c2ccccc2C1=O | 0.6% | x | 1.5% | -11 | x | 1.6 | x
COc1ccc(-n2nc(C(=O)NCC(=O)NCCCN3CCOCC3)c3ccccc3c2=O)c(OC)c1 | 2.5% | 14% | -6.1% | -14 | 3 | -0.9 | 0.1
CC(C)NC(=O)/C(=C/c1cn(-c2ccccc2)nc1-c1cccc([N+](=O)[O-])c1)NC(=O)c1ccccc1 | 2.7% | 3% | -0.9% | 0 | -2 | -0.9 | x
CC(C)CC(NS(=O)(=O)c1ccc2[nH]c(=O)c(=O)[nH]c2c1)C(=O)O (configuration not stated) | -0.6% | 15% | x | 44 | 7 | 0.9 | -0.8
CCC(C)c1ccccc1N1CC(C(=O)Nc2cccc(S(=O)(=O)N3CCOCC3)c2)CC1=O (configuration not stated) | -0.2% | 11% | 1.0% | 11 | -9 | 0.1 | x
O=C1NCCCN1Cc1ccc(F)cc1 | 3.7%[38.3 µM] | 2% | -0.4% | 15 | 9 | 0.2 | -1.3
Cc1cccc(NC(=O)Cc2cccs2)n1 | 2.3% | -7% | 1.5% | -13 | -24 | 2.0 | 7.1
CC(C#N)(NC(=O)CN1CCN(S(=O)(=O)c2ccccc2C#N)CC1)C1CC1 (configuration not stated) | -0.6% | x | -1.9% | -4 | 8 | 0.0 | x
COc1cccc(CC(=O)Nc2ccc(N3CCOCC3)c(S(=O)(=O)Nc3ccccc3OC)c2)c1 | -0.8% | x | u | 3 | x | -0.3 | x
CCOc1cccc(C2C=C(c3ccc4c(c3)OCO4)NC(c3ccc(Cl)cc3)N2)c1O (configuration not stated) | 0.1% | x | 3.5% | x | x | 0.3 | x
N=C(N)SCP(=O)(c1ccccc1)c1ccccc1 | 2.7% | -4% | -1.5% | 6 | 11 | 0.2 | 2.4
Cc1nn(-c2ccccc2)c2nc(=O)n(-c3ccccc3)cc12 | -1.2% | 4% | -1.3% | 4 | 13 | -1.0 | 3.1
COc1ccccc1NS(=O)(=O)c1cc(C(=O)N2CCCCCCC2)ccc1C | -0.6% | x | -1.5% | 7 | 12 | -0.1 | x
C=CCn1c(C(C)NC(=O)c2cccc(C)c2)n[nH]c1=S (configuration not stated) | -0.2% | 11% | -0.2% | -22 | 2 | 0.5 | -6.1
CCCOc1ccc(C(=O)CCCC(=O)c2ccc(OCCC)cc2)cc1 | 6.0% | 15% | 1.9% | -2 | 9 | -0.2 | 2.3
CCOc1ccc(NC(=O)Cn2cc(C(=O)CC)c3ccccc32)cc1 | 3.5% | 2% | -1.6% | -4 | u | 1.0 | 4.7
N#CC[C@H](Cc1ccccc1)N1CCN(CCc2ccccc2)CCC1=O | -0.4% | 30% | 1.4%&1.0% | -27 | 11 | 0.2&-0.9 | -0.8
CC[C@H]1CCCCc2ccccc2[C@@H](C(=O)C[C@@H](O)CC(C)=O)OC1=O | 0.7% | x | -0.4% | 13 | x | 4.1 | x
O=C(O)C1CCN(C(=O)CSc2nc3ccccc3s2)CC1 | -0.9% | 0% | x | -7 | -1 | 0.5 | -1.8
CC(C)OCCCn1c(=O)c2ccccc2n2c(CCC(=O)O)nnc12 | -0.8% | 2% | -1.4% | 15 | 7 | -0.9 | 1.7
COc1ccccc1Nc1ncc(C(=O)Nc2ccc(OC)c(OC)c2)c2ccccc12 | u | 9% | 80%&57% | -3&5 | 8 | -0.3&1.8 | -0.2
O=C(NC(c1ccc(F)cc1)c1ccc2ccccc2n1)C1CCN(CCOc2ccc(Cl)cc2)CC1 (configuration not stated) | -0.6% | x | -10% | x | x | -0.2 | x
Cc1ccc(NC(=O)c2cnn(-c3ccccc3)c2NC(=O)c2ccco2)cc1 | 1.4% | 18% | 0.9% | 12 | -22 | -0.6 | 1.6
CC(=O)Nc1ccc(S(=O)(=O)Nc2ccc3c(c2)OCCO3)cc1Cl | -0.5% | 11% | x | -13 | 12 | 0.3 | 0.7
Cc1ccc(C)c(OCC(=O)Nc2ccccc2C(=O)N2CCN(C)CC2)c1 | -0.8% | 14% | x | 19 | 10 | 0.0 | x
CCN(CC)C(=O)c1[nH]cnc1C(=O)N[C@@H](CC(C)C)C(=O)OCc1ccccc1 | 1.7% | 13% | 0.5% | -27 | -17 | 0.7 | 5.8
CC(/C=N/n1c(-c2cc(C)[nH]n2)n[nH]c1=S)=C\c1ccco1 | -1.2% | 14µM* | -0.1% | 5 | 16 | -0.8 | 2.7
CCOc1ccc(/C=C2\SC(=O)N(CCNC(=O)CN3C(=O)NC4(CCCC4)C3=O)C2=O)cc1OC | 3.1% | 5% | 0.4% | 15 | 2 | -0.2 | x
Cc1nn(C(=O)c2cccnc2)c(C)c1Sc1ccccc1 | 6.0% | 2% | 1.5% | -5 | -6 | 0.4 | 5.9
COc1ccc(CCC(C)N(C)Cc2ccccc2)cc1 (configuration not stated) | -0.7% | 13% | -1.4% | 7 | -4 | -0.3 | -0.3
O=C(c1cccs1)c1coc2ccc(O)c(CN(CCO)CCO)c12 | -1.0%[38.3 µM] | -4% | -0.2% | 0 | -1 | -0.2 | 0.1
COC(=O)c1ccccc1NC(=O)C1CCCN(c2nnc(-n3cccc3)s2)C1 (configuration not stated) | -0.3% | -3% | -9.9% | 10 | 0 | 2.0 | -1.4
O=C(Cc1ccccc1)Nc1ccc(Cl)cn1 | 0.3% | 5% | -4.3% | -24 | -8 | -0.2 | -2.0
CCN(CC)S(=O)(=O)c1ccc(NC(=S)NC(=O)C2CCC2)cc1 | 0.1% | 0% | -0.8% | -4 | -14 | 1.4 | -0.8

Some entries already given, showing only TRPV1 PAM, TRPML1 ag and ClpP mod.
compound | TRPV1 PAM | TRPML1 ag | ClpP mod
Cc1ccc(C)c(OCC(=O)Nc2ccccc2C(=O)N2CCN(C)CC2)c1 | 10 | 0.0 | x
CCN(CC)C(=O)c1[nH]cnc1C(=O)N[C@@H](CC(C)C)C(=O)OCc1ccccc1 | -17 | 0.7 | 0.5%
CC(/C=N/n1c(-c2cc(C)[nH]n2)n[nH]c1=S)=C\c1ccco1 | 16 | -0.8 | -0.1%
CCOc1ccc(/C=C2\SC(=O)N(CCNC(=O)CN3C(=O)NC4(CCCC4)C3=O)C2=O)cc1OC | 2 | -0.2 | 0.4%
Cc1nn(C(=O)c2cccnc2)c(C)c1Sc1ccccc1 | -6 | 0.4 | 1.5%

Further structures follow:
SMILES | PINK1 modulator | Sfp inh | ClpP mod | TRPML1 inh | TRPV1 PAM | TRPML1 ag | Menin-MLL FL inh
CCOC(=O)c1[nH]c2c(c1Cc1ccccc1)C(=O)CC(c1ccc(C(C)(C)C)cc1)C2 (configuration not stated) | 3.0% | x | -2.8% | -23 | x | 0.1 | x
CCOC(=O)c1cnc(SC)nc1Oc1cccc(NS(=O)(=O)c2ccc(C)cc2)c1 | 7.1% | 21% | 1.0% | 19 | 1 | 0.4 | 1.7
Cc1ccc(S(=O)(=O)c2nnn(-c3ccc(F)c(Cl)c3)c2N)cc1 | -0.5% | x | -0.1% | -5 | x | 8.8 | x
CCn1nc(C)cc1C(=O)N1CCCC(N(C)CCc2ccc(OC)c(OC)c2)C1 (configuration not stated) | -0.4% | 11% | -3.3% | -6 | -2 | 0.6 | x
O=C(NCc1ccncc1)c1cccc(NS(=O)(=O)c2ccc(F)c(F)c2)c1 | 3.5% | x | 0.5% | 29 | 3 | -0.4 | x
